SARS PLP yeast – blocks SARS-CoV papain-like protease in a yeast assay; S. cerevisiae expressing SARS-CoV PLpro, growth rescue; control for the full effect not named in the record; Potency, µM (titrated, usually from 32.9 µM), for inactives: top-dose activity, positive = growth rescue; 0.19% of 330,000 active; active means well fitted rising curve with a large enough effect; inconclusive means small, poorly fitted or top-dose-only effect; inactive means no such curve, though single readings can be large or run the other way; note: 0% is about no effect; nearly all actives have a fitted effect of over 55% in size; growth read by luminescence after 48 h
LASV entry inh – Lassa virus entry inhibition. Lassa virus pseudotype entry inhibition, cell reporter; control for the full effect not named in the record. Potency, µM (series often up to 37.9 µM), inactives show at the highest dose activity change, negative = inhibition, most hits filed as inhibitors. 1.2% of 300,000 active. AID 540256; active means well fitted inhibition curve with a large enough effect; inconclusive means small, poorly fitted or top-dose-only effect, or effect the other way; inactive means flat fitted curve, though single readings scatter; tested in HEK293 cells; note: % is set by controls: 0 for no effect and ±100 for the full control effect; nearly all actives have a fitted effect of over 50% in size; luciferase read-out
Cruzain inh noDet – cruzain (T. cruzi) inhibition without detergent | P25779 | purified cruzain, Z-FR-AMC fluorescence, no detergent | Potency, µM, for inactives: max response, negative = inhibition, hits mostly inhibitors | 2.3% of 200,000 active;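 note: plate controls were enzyme without inhibitor for no effect and buffer without enzyme for full effect; nearly all actives have a fitted effect of over 40% in size; top concentration of the series not given in the record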
Target sequence (P25779 123-467 limits assumed): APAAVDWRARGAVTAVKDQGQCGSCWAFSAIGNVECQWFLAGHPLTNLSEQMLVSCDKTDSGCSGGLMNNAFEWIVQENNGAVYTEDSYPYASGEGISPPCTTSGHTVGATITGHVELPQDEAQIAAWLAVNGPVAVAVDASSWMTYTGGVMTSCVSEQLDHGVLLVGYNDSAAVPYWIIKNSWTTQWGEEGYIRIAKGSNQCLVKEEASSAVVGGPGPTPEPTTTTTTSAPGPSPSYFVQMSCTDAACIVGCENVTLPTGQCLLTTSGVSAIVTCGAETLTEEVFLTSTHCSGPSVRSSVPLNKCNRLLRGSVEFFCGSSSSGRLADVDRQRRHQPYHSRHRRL
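Purified cruzain at 1.5 nM, pre-incubated 15 min with compound at room temperature in 100 mM sodium acetate pH 5.5, 5 mM DTT, 0.00005% Triton X-100. Reaction started with 2 uM Z-FR-AMC; AMC fluorescence increase over 60 s gives rate.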
NS1 inh – inhibitors of influenza NS1 protein function. S. cerevisiae slowed by influenza A NS1, growth recovery by OD600. Potency, µM (doses to about 46.1 µM), inactives show at the highest dose activity, positive = more growth. 0.4% of 270,000 active; active means well fitted rising curve with a large enough effect; inconclusive means small, poorly fitted or top-dose-only effect; inactive means no such curve, though single readings can be large or run the other way; note: nearly all actives have a fitted effect of over 50% in size
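A cell-based growth assay was used: compounds that relieve NS1-induced slow growth of budding yeast raise OD600. Assay medium was yeast nitrogen base with ammonium sulphate and -URA supplement, pH 6.0, with 2% galactose.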
Marburg entry inh – blocks Marburg virus binding to or entry into cells. Marburg virus pseudotyped entry inhibition, cell reporter; control for the full effect not named in the record; about a third of the inactives were read at about 46 µM. Potency, µM (doses to about 37.8 µM), for inactives: top-dose activity change, negative = inhibition, hits mostly inhibitors. 1.8% of 300,000 active; active = well fitted inhibition curve with a large enough effect; inconclusive = small, poorly fitted or top-dose-only effect, or effect the other way; inactive = flat fitted curve, though single readings scatter; tested in HEK293 cells; about a fifth of its hits are not listed in these tables; note: % is set by controls: 0 for no effect and ±100 for the full control effect; luciferase read-out
RE007 growth inh – less growth of the S. pombe RE007 Vpr strain. S. pombe RE007 Vpr strain, BacTiter-Glo ATP luminescence, 24 h; control for the full effect not named in the record. Potency, µM (highest dose often 92.2 µM), for inactives: at the top dose activity change, negative = less growth. 0.21% of 360,000 active; active = well fitted falling curve with a large enough effect; inconclusive = small, poorly fitted or top-dose-only effect; inactive = no such curve, though single readings can be large or run the other way;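 note: % is set by controls: 0 for no effect and ±100 for the full control effect; nearly all actives have a fitted effect of over 50% in size; the assay follows cell death caused by Vpr and the record does not say whether a fall means rescue or toxicity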
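Fission yeast strain RE007, carrying one chromosomally integrated HIV-1 vpr copy, was seeded at OD 0.01 in PMG+AL medium with 23 nL pinned compound. After 24 h at 30 °C and 99% humidity, viability was read by BacTiter-Glo luminescence.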
Cruzain Triton – inhibitors of Trypanosoma cruzi cruzain with detergent. purified cruzain, Z-FR-AMC fluorescence, 0.01% Triton. Potency, µM, for inactives: max response, negative = inhibition, actives largely listed as inhibitors. 0.43% of 200,000 active. P25779;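 note: plate controls were neutral wells for no effect and buffer without enzyme for full effect; nearly all actives have a fitted effect of over 40% in size; top concentration of the series not given in the record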
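Read-out: AMC fluorescence (360 nm excitation, 450 nm emission), four reads over 2 min, first-to-third difference used. Conditions: cruzain 1.5 nM, Z-FR-AMC 2 uM, pH 5.5 acetate, 5 mM DTT, 0.01% Triton X-100.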
2A StopGo – FMDV 2A StopGo reporter, luciferase signal | 1.2% of 410,000 active | Potency, µM (titrated, usually from 57.9 µM), inactives show at the highest dose signal change, negative = less light | human cells with a luciferase reporter of 2A StopGo recoding; control for the full effect not named in the record; active = well fitted falling curve with a large enough effect; inconclusive = small, poorly fitted or top-dose-only effect; inactive = no such curve, though single readings can be large or run the other way; tested in HEK293T cells; note: % is set by controls: 0 for no effect and ±100 for the full control effect; nearly all actives have a fitted effect of over 45% in size; luciferase light after 4 h
An asterisk follows results filed as active; ? = inconclusive; . = no result given; & = joins results of further samples; [ ] = remark or other dose. Unless noted, calls come from the whole dose curve; as a rule, active = well fitted curve in the direction sought with a large enough effect; inconclusive = small, poorly fitted or top-dose-only effect, or another doubt; inactive = no such curve, though single readings can be large; an effect the other way counts as inactive or inconclusive. Potency is the fitted concentration of half-maximal effect.

canonical_smiles	SARS PLP yeast	Marburg entry inh	LASV entry inh	Cruzain Triton	NS1 inh	2A StopGo	Cruzain inh noDet	RE007 growth inh
Cc1ccccc1OC(C)c1nc(-c2ccccc2)no1 (centres undefined)	-9%	3%	14%	-3.1%	-34%	17%	5%	-2%
Cc1c(NCc2ccccc2O)c(=O)n(-c2ccccc2)n1C	2%	.	.	.	21%	-6%	.	1%
O=C(Nc1ccccc1)c1cnc(N2CCCCC2)c2ccccc12	.	.	?	-12%	.	?	-16%	.
O=C(CCCOc1ccc(Cl)cc1Cl)NCC1CCCO1 (centres undefined)	10%	4%	7%	-2.2%	-4%	0%	14%	-20%
O=c1cc(-c2ccccc2)n(S(=O)(=O)c2ccccc2)o1	6%	-2%	21%	-1.0%	0%	36%[activator]	5%	1%
CCNc1ccc(S(=O)(=O)C(F)(F)F)cc1NC(=O)C12CCC(CC1)C2	-1%	6%&3%	4%	-0.4%	-3%	.	4%	2%
CC(C)COc1ccc(C(=S)N2CCCC2)cc1	.	1%[46.1 µM]	?	.	.	-8%	.	5%
COc1cc(C(=O)NC(=S)Nc2ccc(NC(=O)c3ccco3)cc2)cc(OC)c1OC	19%	28%	-1%	-6.7%	24%	-26%	-15%	11%
C=CCNC(=O)/C(C#N)=C/c1c(N2CCN(c3ccccc3)CC2)nc2c(C)cccn2c1=O	0%	-8%	-12%	.	2%	-2%	.	6%
Nc1cccc(-c2nc3ccc(N)cc3s2)c1	-17%	11µM*	?	-22%	-12%	?	-1%	-24%
COc1cc(OC)cc(C(=O)N[C@H](C(=O)Nc2cccc(S(=O)(=O)N3CCCC3)c2)C(C)C)c1	-1%	?	2%	.	-31%	9%	.	9%
COc1ccc(-c2[nH]c(-c3ccc(C)cc3)nc2SCC(=O)Nc2nccs2)cc1	6%	?	0%	-5.9%	-15%	-29%	?	3%
COc1ccc(-n2c(Cc3cccn3C)nnc2SCC(=O)Nc2ccc(C)c(Cl)c2)cc1	3%	-14%&-14%	6%	-5.4%	?	24%	14%	-6%
CCOC(=O)C1CCCN(C(=O)c2cc(Nc3ccc(OC)cc3OC)nc3ccccc23)C1 (centres undefined)	-13%	-17%	?	-12%	-22%	-15%	-1%	1%
CN(C)C(=O)c1ccc(Oc2ccc(C(=O)N(C)C)cc2)cc1	6%	19%&19%	2%	2.5%	-3%	25%	6%	14%
COc1cccc(-c2csc(N3CCN(CC(=O)NNC(=O)c4ccc(Cl)cc4)CC3)n2)c1	-4%	-22%	18%	-3.8%	23%	.	?	4%
CCc1cccc(NC(=O)C(Cc2ccccc2)NS(=O)(=O)c2cccs2)c1 (centres undefined)	.	-8%[46.1 µM]	-4%[46.1 µM]	-9.7%	.	14%	3%	.
O=C(CN1C(=O)COc2ccccc21)Nc1ccc(N2CCOCC2)cc1	0%	.	.	.	-5%	23%	.	13%
Cc1ccsc1/C=N/NC(=O)c1ccco1	-3%	?	9%	-4.0%	2%	30%[activator]	0%	20%
Cc1cc(C)cc(N2C(=O)CS(=O)(=O)C23C(=O)N(Cc2ccc(F)cc2)c2ccc(C)cc23)c1 (centres undefined)	.	.	?	-4.6%	.	-7%	?	.
CC(C)NC(=O)COc1ccc(S(=O)(=O)N2CCOCC2)cc1	4%	7%	-2%	8.5%	2%	12%	-6%	17%
O=C(Nc1cc(Sc2ccccn2)cc([N+](=O)[O-])c1)c1cccc(F)c1	13%	?	?	-5.8%	-3%	32µM*	-20%	4%
COc1ccc(C(C)=O)cc1COC(=O)c1ccc(N)c([N+](=O)[O-])c1	0%	?	11%	.	.	?	.	-18%
COC(=O)CC1C(=O)NC2CCCCC2N1C(=O)c1ccccc1 (centres undefined)	.	-2%	24%	3.7%	-7%	-5%	-1%	28%
Fc1ccc(C2=Nn3c(Cc4ccccc4)nnc3SC2)cc1	2%	0%	0%	-3.3%	-14%	.	4%	-1%
Cc1ccc2cc(CN(Cc3nnnn3C3CCCC3)C3CCCCC3)c(=O)[nH]c2c1C	5%	-25%&1%	18%	1.3%	-13%	.	1%	1%
S=C(NCc1ccco1)N1CCN(c2ccccn2)CC1	-1%	6%[46.1 µM]	-4%	.	0%	12%	.	-21%
C=CCOc1c(Br)cc(/C=C2\SC(=Nc3ccccc3)NC2=O)cc1OC	-8%	.	.	.	10%	-22%	.	-10%
COc1ccc(N/C(=C(/C(Cl)=C(Cl)Cl)[N+](=O)[O-])n2nnc3ccccc32)cc1OC	15%	.	.	-24%	11%	.	-24%	.
Cc1c(C(=O)N/N=C/c2ccccc2)sc(=S)n1C	17%	5%	-1%	-2.1%	-2%	-16%	-3%	6%
COc1cnc(SCc2c(Cl)cccc2Cl)nc1Cl	-12%	0%	-1%	-7.3%	-67%	-21%	-8%	6%
CCc1ccc(NC(=O)CCc2nnc3ccc(N4CCC5(CC4)OCCO5)nn23)cc1	2%	?	3%[46.1 µM]	.	-5%	14%	.	13%
COC(=O)c1sc(NC(=O)COc2c(C)cccc2C)nc1C	-2%	?	-10%	.	0%	-11%	.	2%
CC(=O)c1cnc2cc(-c3cccc(Br)c3)nn2c1C	-3%	?	10%[46.1 µM]	.	.	47%[activator]	.	-15%
Cc1cc(Cl)ccc1N(CC(=O)NCc1ccc2c(c1)OCO2)S(C)(=O)=O	1%	-4%[46.1 µM]	4%	.	-1%	-14%	.	17%
CSC(=NCc1ccco1)NC#N	2%	.	.	.	-1%	-3%	.	5%
CCOc1cc(-c2nc(C)c(C(C)=O)n2O)ccc1OCC(=O)Nc1cccc(C)c1	-25%	-4%	0%	.	.	-17%	.	-1%
COC(=O)c1c(NC(=O)c2ccc(S(=O)(=O)N3CCOCC3)cc2)sc2c1CCN(C(C)C)C2	-3%	4%[46.1 µM]	6%[46.1 µM]	.	-10%	-2%	.	2%
Cc1ccc(C(=O)C(C)N(C(=O)c2ccc(Cl)cc2Cl)N2C(=O)CCCC2=O)cc1 (centres undefined)	1%	5%[46.1 µM]	-2%	.	3%	1%	.	-11%
Brc1ccc(-c2csc(NC3=NCCCCC3)n2)cc1	-24%	10%[46.1 µM]	1%	-13%	-1%	40%[activator]	3%	-16%
CCCCC(=O)Nc1ccc(NC(=O)c2cccs2)cn1	.	10%	-7%	.	.	12%	.	14%
CCOC(=O)c1[nH]c2ccc(OC)cc2c1NC(=O)CN1CCN(c2ccccn2)CC1	-3%	.	.	-3.9%	5%	.	-4%	.
Cn1nc([N+](=O)[O-])nc1Oc1ccc(C(C)(C)C)cc1	?	-1%	?	-4.0%	-11%	-30%	-14%	-3%
Cc1ccc(S(=O)(=O)N2CCC(=O)N(CCOCc3cccc(C(F)(F)F)c3)CC2)cc1	6%	-30%	?	-4.1%	-6%	0%	?	-10%
CC(C)(C)c1ccc(-c2nc(NCc3cccnc3)c3ccccc3n2)cc1	-90%	?	?	-13%	-65%	17%	25%	6%
CNC(=O)c1c[nH]c2ccc(S(=O)(=O)Nc3cccc(Cl)c3C)cc2c1=O	-8%	-10%[46.1 µM]	-15%[46.1 µM]	-3.8%	.	5%	7%	.
OCCC1CN(Cc2ccncc2)CCN1C1CCCC1 (centres undefined)	1%	.	.	.	5%	-11%	.	3%
CCCCC(=O)Nc1cc(C)c(NC(=O)c2ccco2)cn1	-3%	.	.	.	9%	25%	.	-2%
COc1ccc(/C=C/C(=O)OC2CCCN(C)C2)cc1 (centres undefined)	-2%	.	.	.	7%	3%	.	18%
CCc1ccc(CNC(=O)c2ccc(NC(=O)N3CC(C)Sc4ccccc43)cc2)cc1 (centres undefined)	.	?	-9%[46.1 µM]	-4.3%	.	-10%	?	.
Cc1ccccc1C(=O)c1cccn1CC(=O)O	-26%	19%	-4%	0.1%	-53%	10%	-5%	7%
O=C(NCc1ccco1)C1(c2ccccc2)CCCC1	0%	-6%	0%	2.7%	0%	.	4%	3%
O=C(COc1ccc2ccc(=O)oc2c1)Nc1c(Cl)cccc1C(F)(F)F	9%	2%[46.1 µM]	4%[46.1 µM]	.	12%	-4%	.	3%
FC(F)(F)c1cnc(COc2cc(Cl)cc(Cl)c2)c(Cl)c1	0%	0%[46.1 µM]	1%[46.1 µM]	.	7%	-11%	.	0%
CCCn1c(=O)[nH]c(=O)c2c1nc(-c1ccc(OC(F)F)c(OC)c1)n2CCOC	-1%	-4%	?	-4.1%	14%	-19%	3%	-6%
COc1cc(/C=N/N2CCN(c3ccccc3)CC2)cc(OC)c1OC(C)=O	-1%	.	.	.	-13%	-21%	.	9%
Cc1cccn2c(=O)c(C=NCCO)c(NCc3ccco3)nc12	-1%	-27%	-12%	-9.0%	-4%	-3%	3%	-20%
c1cncc(-c2noc(C34CC5CC(CC(C5)C3)C4)n2)c1	0%	14%	-25%	-9.7%	-32%	-6%	-4%	-12%
Cc1cc(N)n2ncc(-c3ccc(F)cc3)c2n1	5%	0%[46.1 µM]	?	-2.9%	2%	47%[activator]	4%	-27%
CCOc1ccc2nc(SCC(=O)c3ccc(C)s3)sc2c1	7%	4%[46.1 µM]	4%	-1.1%	3%	19%	-2%	-7%

(next part)
canonical_smiles	SARS PLP yeast	Marburg entry inh	LASV entry inh	Cruzain Triton	NS1 inh	2A StopGo	Cruzain inh noDet	RE007 growth inh
CCOc1ccc(/C=N/NC(=O)c2ccc(Cn3cc(Br)cn3)o2)cc1	-19%	?	16%	-5.5%	-9%	69%[activator]	-3%	-10%
COc1ccc(-c2cc(C(=O)N3CCN(c4ccccn4)CC3)c3ccccc3n2)cc1	-18%	?	?	-7.1%	-116%	18%	13%	-6%
O=C1C=CC(=O)N1Cc1ccccn1	.	2%[46.1 µM]	-15%[46.1 µM]	.	.	-17%	.	3%
COc1ccc(CN2CCN(C(=O)c3ccc4nc(N5CCOCC5)sc4c3)CC2)c(OC)c1OC	-3%	-3%[46.1 µM]	-12%	.	.	-17%	.	-11%
O=C1NN(c2ccccc2)C(=O)/C1=C/c1coc2ccccc2c1=O	-24%	?	?	-5.3%	-33%	?	4%	17%
O=C1CCCCCN1C(=O)c1ccccc1	.	9%[46.1 µM]	-7%[46.1 µM]	.	.	-9%	.	1%
COc1cccc2c1cc1c(=O)n(CC(=O)NCCCc3ccccc3)nc(C)n12	20%	.	.	.	12%	-1%	.	9%

Screens (PubChem BioAssay)
